Screening results from PubChem BioAssay.
Sfp PPTase inh: inhibitors of Bacillus subtilis Sfp phosphopantetheinyl transferase; 310,000 tested, 3.5% active; Biochemical Sfp PPTase activity, qHTS; Q9F4F7; Potency, µM, without a hit: max response, negative = inhibition, usual class: inhibitors; active means well fitted inhibition curve with a large enough effect; inconclusive means small, poorly fitted or top-dose-only effect, or another doubt; inactive means no such curve, though single readings can be large or run the other way;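 further: the enzyme is Sfp with the accession as filed and its product quenches rhodamine fluorescence; potency means the concentration at half of the fitted maximal effect; 0% = enzyme reaction without inhibitor and -100% = no enzyme wells; top concentration of the series not given in the record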
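Fluorescence-quenching assay with 15 nM Sfp, 5 uM rhodamine-CoA and 12.5 uM BHQ-2-labelled ybbR peptide in pH 7.6 Hepes/MgCl2 buffer. Enzyme was pre-incubated with compound for 15 min at room temperature. Rate was taken from the 30-min fluorescence change (525/598 nm).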
gsp antagonist: antagonists of gsp mutant (McCune-Albright syndrome). gsp-mutant cells, cAMP HTRF, 30 min; control for the full effect not named in the record. 340,000 tested, 0.4% active. AID 624288. Potency, µM (doses to about 76.9 µM), inactives show top-dose activity change, negative = inhibition, usual class: inhibitors; active = falling curve of any shape with a large fitted effect; inconclusive = falling curve, mostly with a smaller effect; inactive = flat or rising curve; cell line not stated here;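 further: intracellular cAMP measured with PDE inhibitor Ro 20-1724 present during compound exposure; potency means the concentration at half of the fitted maximal effect; on the % scale 0 is the no-effect control and ±100 the full control effect; nearly all actives have a fitted effect of over 65% in size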
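Cells in G418 medium, seeded 16-24 h, 37C; buffer exchange to DPBS + 1 mM CaCl2, 0.5 mM MgCl2, 0.05% BSA; cpds in DMSO + […] (300 uM stock), 30 min 37C; HTRF cAMP detection.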
gsp agonist: agonists of gsp mutant (McCune-Albright syndrome); gsp mutant cells, cAMP HTRF, 30 min; control for the full effect not named in the record; Potency, µM (top dose mostly 76.9 µM), for the others: at the highest dose activation (cAMP increase), usual class: activators; 340,000 tested, 0.13% active; active = well fitted activation curve with a large enough effect; inconclusive = small, poorly fitted or top-dose-only effect, or another doubt; inactive = no such curve, though single readings can be large or run the other way; cell line not stated here;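 further: phosphodiesterase inhibitor Ro 20-1724 added with compounds to block cAMP breakdown; potency means the concentration at half of the fitted maximal effect; nearly all actives have a fitted effect of over 60% in size; about a fifth of the inactives were tested at one dose only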
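Cells stably selected in G418 were plated at 2000/well, grown 16-24 hr, then given compounds in DMSO with the PDE inhibitor […] (300 uM solution added) for 30 min at 37C; cAMP was read by HTRF.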
TRPV1 PAM: human TRPV1 potentiation; Q8NER1; TRPV1-expressing cells, Fluo-8 calcium influx, capsaicin EC20 potentiation; host cell line not named in the record; control for the full effect not named in the record; potentiation, % at 8.33 µM; 320,000 tested, 0.02% active; AID 540277; active means potentiation above 80%; inconclusive means 30% to 80%; inactive means below 30%; further: 0% is about no effect
Target sequence (Q8NER1 whole entry, looked up): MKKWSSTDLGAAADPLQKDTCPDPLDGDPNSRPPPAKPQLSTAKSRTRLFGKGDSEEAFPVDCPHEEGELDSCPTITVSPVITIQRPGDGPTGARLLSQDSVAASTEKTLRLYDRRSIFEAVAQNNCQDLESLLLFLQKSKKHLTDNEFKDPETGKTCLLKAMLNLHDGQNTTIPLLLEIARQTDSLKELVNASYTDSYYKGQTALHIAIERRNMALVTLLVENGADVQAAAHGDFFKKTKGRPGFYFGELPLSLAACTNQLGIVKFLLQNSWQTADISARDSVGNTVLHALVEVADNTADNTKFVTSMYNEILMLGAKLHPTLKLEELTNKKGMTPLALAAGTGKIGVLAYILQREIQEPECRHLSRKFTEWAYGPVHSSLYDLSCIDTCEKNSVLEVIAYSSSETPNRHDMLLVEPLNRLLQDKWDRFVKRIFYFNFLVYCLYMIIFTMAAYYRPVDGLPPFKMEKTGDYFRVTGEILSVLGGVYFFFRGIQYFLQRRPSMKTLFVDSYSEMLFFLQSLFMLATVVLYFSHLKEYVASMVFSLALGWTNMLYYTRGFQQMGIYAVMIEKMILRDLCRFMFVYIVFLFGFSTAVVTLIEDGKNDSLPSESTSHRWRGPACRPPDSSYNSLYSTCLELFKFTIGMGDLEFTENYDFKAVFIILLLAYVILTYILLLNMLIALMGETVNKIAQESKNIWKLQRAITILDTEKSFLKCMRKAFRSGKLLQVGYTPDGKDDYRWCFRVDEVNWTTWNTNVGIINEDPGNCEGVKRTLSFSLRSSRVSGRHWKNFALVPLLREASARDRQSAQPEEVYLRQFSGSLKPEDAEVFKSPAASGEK
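TRPV1-expressing cells were cultured overnight at 35.5C and loaded with Fluo-8 calcium dye for 40 to 90 min at room temperature. After a 10 s baseline, compound was added and calcium influx was read kinetically for 3 min (ex 480/em 520 nm).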
TRPML1 blocker: inhibitors of human TRPML1 channel; AID 624415; TRPML1-inducible cells, Ca2+ dye fluorescence, FDSS; stronger effect = lower value; inhibition of EC80 agonist-evoked calcium signal; activity change, negative = inhibition, % (concentration not given with the values); 390,000 tested, 0.02% active; in the data active means activity change below about -50%; inconclusive means about -30% to -50%; inactive means above about -30%;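 further: stimulus is agonist 54-4 at its EC80 concentration; on the % scale 0 is the no-effect control and ±100 the full control effect; compound concentration not given in the record; the text of the record puts the active cut at -80%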
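TRPML1-DL cells, Tet-induced overnight (~16 h, 37 °C) at 1,500 cells/well, were loaded with Ca8 no-wash dye plus quencher for 45-90 min at room temperature. Compounds were pinned during FDSS kinetic reading; agonist 54-4 at EC80 (4 uM final) then added.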
Menin MLL FP FL: inhibitors of human menin-MLL interaction, wild-type MLL peptide. Fluorescence polarization, fluorescein-MLL peptide displacement from menin. FP activity change, % at 61.4 µM. 290,000 tested, under 10 active. AID 1766; inconclusive = falling polarisation curve, or a change in total fluorescence; inactive = total fluorescence flat and polarisation flat or rising; no compound was filed as active; the % refers to the polarisation; negative = inhibition;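 further: % of control where 0% means no effect; inhibitors lower the polarisation; unlabelled MLL peptide was the positive control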
ClpP mod: qHTS Assay for Activators of ClpP | Potency, µM (series often up to 57.5 µM), for the others: top-dose activity change, negative = active | AID 651965, 2013 | 340,000 tested, 1.9% active | purified B. subtilis ClpP, FRET peptide cleavage, 20 min | ATP-dependent Clp protease proteolytic subunit (Bacillus subtilis (strain 168)), P80244; active = well fitted falling curve with a large enough effect; inconclusive = small, poorly fitted or top-dose-only effect; inactive = no such curve, though single readings can be large or run the other way; further: potency means the concentration at half of the fitted maximal effect; the source files actives as falling curves though it sought activators and does not explain the sign; nearly all actives have a fitted effect of over 65% in size; many hits overshoot -100%
Target sequence (P80244 whole entry, looked up): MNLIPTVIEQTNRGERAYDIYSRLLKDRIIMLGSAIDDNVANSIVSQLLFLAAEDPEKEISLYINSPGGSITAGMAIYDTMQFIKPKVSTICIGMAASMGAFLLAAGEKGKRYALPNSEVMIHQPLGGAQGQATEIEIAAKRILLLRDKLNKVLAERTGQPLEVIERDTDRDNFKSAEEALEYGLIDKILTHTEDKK
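FRET quenching reversal measured ClpP activation: 10 microg/mL B. subtilis ClpP at pH 8 with the FRET-FV decapeptide, read at 430 nm after 320 nm excitation. The 20-min minus 0-min signal was scaled between DMSO/no-enzyme wells and ADEP (5.8 microM final).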
An asterisk follows results filed as active; ? = inconclusive; . = not tested or not shown; & = joins results of further samples; [ ] = dose if it differs, or a comment.

SMILES | Menin MLL FP FL | gsp agonist | TRPV1 PAM | TRPML1 blocker | ClpP mod | Sfp PPTase inh | gsp antagonist
Cc1ccc(S(=O)(=O)N[C@H](C(=O)N2CCC(C(=O)N[C@H](C(=O)O)c3ccccc3)CC2)C(C)C)cc1 | 9.5 | . | 4 | . | 0.3% | 12% | 13%
O=C(CSc1nc2ccccc2c(=O)n1Cc1ccc(F)cc1)NCc1cccs1 | 3.2 | 6%[15.4 µM] | -29 | 19 | . | -9% | 6%
C=C(C)C(=O)Nc1ccc2c(c1)OCCOCCOCCO2 | 2.9 | -27% | -1 | 17 | . | 5% | 3%
Cc1cnc(C(=O)OCC(=O)Nc2cccc3ccccc23)cn1 | . | -23% | . | -7 | 0.7% | . | 3%
COc1ccc(S(=O)(=O)N2CCOCC2)cc1NC(=O)CO/N=C/c1ccccc1OC(F)F | 5.9 | -29% | 1 | 22 | -18% | 12% | 7%
COC1c2ccccc2C(=O)N1Cc1ccc(F)cc1 (stereo not given) | -2.7 | 3%[15.4 µM] | -3 | -2 | -1.1% | 14% | -2%
CN(C)C=NC(=O)c1cc(C(=O)c2ccc(C(C)(C)C)cc2)c[nH]1 | 0.8 | ? | -14 | -3 | 1.5% | 8% | -8%
CC(=O)c1sc(Nc2nc3ccc(F)cc3s2)nc1C | 26 | 8% | 5 | -4 | -9.8% | -11% | ?
O=[N+]([O-])c1ccc(OCc2cn([C@@H](CO)c3ccccc3)nn2)c(Br)c1 | 4.5 | 11% | ? | 1 | 2.5% | 3% | 6%
CCOc1cc(C2NC(=O)NC(c3ccccc3)=C2C(C)=O)ccc1OCC(N)=O (stereo not given) | 1.9 | -9% | 2 | -4 | -2.0% | 4% | -4%
O=C(COC(=O)c1c(Cl)cccc1Cl)NCc1cccs1 | . | 11% | . | 1 | -0.5% | . | 7%
CCCCCn1c(SCCc2ccccc2)nc2c1c(=O)[nH]c(=O)n2C | 1.8 | 4% | -13 | 8 | 0.6% | 8% | 2%
O=C(N/N=C/c1ccccc1)c1ccc(NC(=O)c2ccc(F)cc2)cc1 | -3.0 | 5%[15.4 µM] | ? | -4 | . | 15% | 17%
COC(=O)C(CC(=O)c1ccc(Cl)cc1)c1ccccc1 (stereo not given) | . | -24% | . | 7 | -4.2% | . | -16%
Cc1ccc(-c2noc(CCC(=O)NCc3ccco3)n2)cc1 | 6.6 | -16% | -3 | 9 | -0.9% | 56µM* | -5%
CCCN(CC(=O)Nc1ccc(F)c(F)c1F)C(=O)c1ccc(N2CCCC2=O)cc1 | . | 5% | -6 | 26 | -1.1% | . | -3%
C#CCN1C(=O)S/C(=C\c2ccc(-c3ccc(C(=O)O)cc3C)o2)C1=O | 17 | -83%[inhibitor] | -5 | 11 | . | -30% | -17%
CCOc1cc(/C=C2\C(=O)N(Cc3ccc(C)cc3)C(C)=C2C(=O)OC)ccc1O | 8.5 | ? | -6 | 16 | 6.7% | 18µM* | -2%
O=C(CSc1ccc2nnc(-c3ccc(Cl)cc3)n2n1)N1CCc2ccccc21 | 2.5 | -29% | 8 | -4 | -8.0% | 5% | 2%
CCCCNC(=O)CCC(=O)Nc1ncc(-c2ccc(C)cc2)n1C | 0.4 | -30%[inhibitor] | -6 | -8 | -5.5% | 14% | 0%
CC(C)=C1C2C=CC1C1C(=O)N(c3ccc4c(c3)OCO4)C(=O)C21 (stereo not given) | 1.1 | 30% | -14 | 11 | 0.2% | ? | -2%
Cc1ccc2c(C)c(C(=O)N3CCN(c4cnccn4)CC3)oc2c1C | 4.0 | -5% | -6 | -1 | -26% | 4% | 2%
CO[C@H]1O[C@H](C)[C@@H](O)C[C@H]1NC(=O)OCc1ccccc1 | -2.3 | ? | 3 | -1 | . | 10% | 7%
Cc1[nH]n(-c2ccc([N+](=O)[O-])cc2)c(=O)c1C=NCC1CCCO1 (stereo not given) | -2.2 | -11%[15.4 µM] | 1 | 12 | . | 17% | 3%
O=C(O)COc1ccc2c(c1)O/C(=C\c1cccs1)C2=O | 12 | -11%[15.4 µM] | -13 | -7 | . | -9% | -11%
Cc1cccc(NC(=O)Nc2ccc3c(c2)N(C)C(=O)CS3)n1 | -0.9 | -327%[inhibitor] | -1 | 2 | -12% | 3% | -11%
CCc1ccc(C(=O)COC(=O)C(Cc2ccccc2)NC(=O)c2ccc(Cl)cc2)cc1 (stereo not given) | -1.3 | -3% | 17 | -3 | 3.3% | -6% | 1%
Cc1ccc(S(=O)(=O)N(C)C[C@@H]2Oc3ccc(NC(=O)Cn4cnnn4)cc3C(=O)N([C@@H](C)CO)C[C@H]2C)cc1 | . | . | . | -21 | 0.6% | . | 2%
O=S(=O)(NCCc1ccccn1)c1ccc(F)c(F)c1 | -2.0 | -92%[inhibitor] | -11 | 2 | 0.6% | 13% | 8%
CCOC(=O)C1=C(C)N(C)C(C)=C(C(=O)OCC)C1c1ccccc1 | -2.0 | -3% | -15 | -5 | -0.9% | 8% | -3%
C[C@@H](NC(=O)c1[nH]cnc1C(=O)Nc1nccs1)c1ccccc1 | . | . | ? | -3 | -0.1% | . | 1%
CC(C)N(CCNC(=O)C1CCCN(c2ncnc3c2nc2n3CCCCC2)C1)Cc1ccccc1 (stereo not given) | -1.1 | 4% | 8 | 31 | 0.9% | -1% | -3%
COc1cc([N+](=O)[O-])c(OC)cc1SCc1n[nH]c(=S)n1-c1ccc(F)cc1 | -0.6 | -15%[15.4 µM] | -20 | 0 | . | -9% | -16%
Cc1cc(CNC(=O)CCc2nnc(CCCCc3ccccc3)o2)nn1C | -4.7 | 9%[15.4 µM] | 0 | -4 | . | 18% | 3%
CCCCCCCCN1[C@@H](CC(C)=O)c2cc(C(F)(F)F)ccc2S1(=O)=O | . | -1% | . | -4 | -2.2%&-0.3% | . | -4%
OCC(Cc1ccccc1)NCc1ccccc1C(F)(F)F (stereo not given) | 3.9 | 20% | 3 | -2 | -2.5% | -2% | 9%
Cc1ccccc1C(=O)Nc1nc2c(C)csc2c(=O)s1 | 8.5 | ? | ? | 15 | 49% | 9% | -7%
O=C(N[C@H]1C/C=C\C[C@@H](CC(=O)N(CCO)Cc2ccccc2)C(=O)N2CCC[C@@H]2COC1=O)OCC1c2ccccc2-c2ccccc21 | . | . | . | 23 | -6.2% | . | -3%
O=C(COc1ccc(-c2ccccc2)cc1)NN=C1CCCC1 | -6.1 | 19% | -16 | 32 | . | 4% | -5%
CCC/C=C/c1ccc(CN2C(C(C)C)C(=O)N(Cc3cn(CCC4OCCO4)nn3)CCS2(=O)=O)cc1 (stereo not given) | . | -14% | . | 5 | -1.2% | . | .
O=C(CSc1nnc2scc(-c3ccccc3)n12)NCC1CCCO1 (stereo not given) | 3.0 | 0% | 1 | 0 | -0.1% | 19% | -1%
COc1nc(OC)nc(N2CCC(C(=O)NCc3cccs3)CC2)n1 | 6.3 | ? | -16 | 0 | -0.5% | ? | 13%
CN(c1ccccc1)S(=O)(=O)c1ccc(NC(=O)c2cccs2)cc1 | 0.3 | 10%[15.4 µM] | -14 | 18 | . | 19% | -19%
Cc1nc2ccccc2c(=O)n1-c1cccc(NS(=O)(=O)c2ccccc2)c1 | . | 28% | 6 | 2 | 0.8% | . | 14%
CCOC(=O)/C(N=Nc1c(C)n(C)n(-c2ccccc2)c1=O)=C(\C)O | 0.8 | 4% | 0 | -5 | 0.8% | -3% | -8%
CC(=O)N1CCN(C(=O)c2cccc(NS(=O)(=O)c3ccc(Br)cc3)c2)CC1 | . | 10%[15.4 µM] | -2 | -13 | . | . | -5%
C[C@H](CO)N1C[C@H](C)[C@H](CN(C)C(=O)Nc2ccc(N3CCN(C)CC3)cc2)OCc2cnnn2CCCC1=O | . | -19% | . | -12 | 0.5% | . | .
O=C(OCc1nc2ccccc2s1)c1ccc(Br)o1 | 3.4 | -37% | -15 | 23 | . | -4% | 3%
COc1ccc(Cl)cc1NC(=O)CSc1nc(Nc2ccccc2)nc(N2CCOCC2)n1 | 1.9 | ? | 5 | 2 | -9.6% | 22% | -14%
CCOC(=O)c1ccc(C(=O)OCC)c(NC(=S)Nc2ccc([N+](=O)[O-])cc2OC)c1 | 1.2 | -29% | -12 | 7 | ? | -3% | -14%
Cc1ccccc1OCC(=O)N/N=C/c1ccc2c(c1)OCCO2 | 0.0 | -50%[inhibitor] | -3 | 5 | -9.0% | -10% | -10%
CC(C)c1nc2ccc(NC(=O)C3CCCCC3)cc2[nH]1 | 4.1 | -11% | -15 | 4 | -0.2% | 6% | 1%[15.4 µM]
Cc1cccc(NC(=O)C(Cc2ccccc2)c2nn[nH]n2)c1C (stereo not given) | -0.4 | 2% | -12 | -7 | -1.8% | ? | 0%
CCc1ccc(N2CN(Cc3cccnc3)CNC2=S)cc1 | 1.6 | 3%[15.4 µM] | . | 4 | . | 4% | 6%
COC(=O)Cc1c(C)c2ccc(OCC(=O)NC3CCS(=O)(=O)C3)cc2oc1=O (stereo not given) | -3.4 | 0% | -4 | -14 | 3.7% | 5% | 11%
COc1ccc2cc(C(=O)C3CCCN(C(=O)Cc4c(C)noc4C)C3)ccc2c1 (stereo not given) | -1.1 | 6% | -8 | 7 | . | -3% | -21%
COc1ccccc1NC(=O)c1ccccc1S(=O)(=O)c1ccccc1[N+](=O)[O-] | 0.7 | 10% | -2 | -5 | -3.8% | 0% | -2%
Cn1c(=O)c2c(nc(Oc3ccc(-c4ccccc4)cc3)n2C)n(C)c1=O | -1.5 | -33%[inhibitor] | 5 | 44 | -0.1% | 10% | -12%
COc1ccc(CN(C)CC2CCCN(CCc3ccc(F)cc3)C2)c(OC)c1OC (stereo not given) | -9.1 | -27% | 3 | 34 | 3.1% | 8% | 13%
CN(C(=O)COC(=O)c1ccc2ccccc2n1)C1CCS(=O)(=O)C1 (stereo not given) | 0.0 | -8%[15.4 µM] | -14 | -21 | . | -7% | -1%
COCCCN1C(=O)C(=O)/C(=C(/O)c2ccccc2)C1c1ccc(N(C)C)cc1 (stereo not given) | -0.2 | 16% | 3 | -8 | -0.9% | -3% | -3%

Not a hit list. Share with any hit: about 4.9%.
